Screening results from PubChem BioAssay.
TRPML1 inh – inhibitors of human TRPML1 channel; TRPML1-inducible cells, Ca2+ dye fluorescence, FDSS; stronger effect = lower value; inhibition of EC80 agonist-evoked calcium signal; hit rate 0.02% among 390,000; Q9GZU1; activity change, negative = inhibition, % (test concentration not listed); in the data active means activity change below about -50%; inconclusive means about -30% to -50%; inactive means above about -30%;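 also: stimulus is agonist 54-4 at its EC80 concentration; % is scaled to controls: 0 for no effect and ±100 for the full control effect; compound concentration not given in the record; the text of the record puts the active cut at -80%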
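Tet-induced TRPML1-DL cells loaded with Ca8 no-wash calcium dye were read kinetically on FDSS. Compound addition was followed by EC80 agonist 54-4 (4 uM final); inhibition was read over 110 s.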
CtBP-E1A blk – blocks the CtBP interaction with E1A; AlphaScreen GST-E1A/His-CtBP binding, 1536-well; stronger effect = lower value; control for the full effect not named in the record; activity change, % (concentration not given with the values); hit rate 0.49% among 340,000; in the data active means activity change below about -65%; inconclusive means about -30% to -65%; inactive means above about -30%; also: % is scaled to controls: 0 for no effect and ±100 for the full control effect
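Steps: dispense buffer (Tris pH 8.0, NaCl 300 mM, TCEP 1 mM, BSA, Tween 20); add 5X protein mix (GST-E1A, His-CtBP, 125 nM each); pin 23 nL compound; 2 h at 37 °C, dark; add 5X beads (50 ug/mL); 1 h; read.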
Six1-Eya2 blk – inhibitors of human Six1/Eya2 interaction; Q15475+O00167; AlphaScreen GST-Six1/His-Eya2 binding, biochemical; stronger effect = lower value; control for the full effect not named in the record; activity change, % (concentration not given with the values); hit rate 0.56% among 360,000; AID 651725; in the data active = activity change below about -65%; inconclusive = about -30% to -65%; inactive = above about -30%; also: % is scaled to controls: 0 for no effect and ±100 for the full control effect
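GST-Six1 + His-Eya2 (5X stock: 250/500 nM); Tris pH 8.0, 300 mM NaCl, 0.05% BSA, 0.02% Tween 20; GSH donor/Ni acceptor beads; 1 h 37 °C dark; AlphaScreen readout.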
D2 potentiator – human D2 receptor positive allosteric modulation | P14416 | DiscoveRx D2 beta-arrestin cells, luminescence, 90 min; 100% = 57 uM dopamine signal | potentiation, % (test concentration not listed) | hit rate 0.23% among 360,000; active = potentiation of 50% or more; inconclusive = 30% to 50%; inactive = 30% or less;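 also: compound concentration not given in the record; tested on top of an EC20 dose of dopamine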
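PathHunter D2 cells, attached overnight at 37 deg C, received compound in DMSO plus dopamine at EC20 (50 nM final) for 90 min at 37 deg C. Beta-arrestin recruitment was read as luminescence after 1 h with detection reagent at ambient temperature.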
TRPV1 potentiator – potentiators of human vanilloid receptor 1 (TRPV1); potentiation, % at 8.33 µM; AID 540277; hit rate 0.02% among 320,000; Q8NER1; TRPV1-expressing cells, Fluo-8 calcium influx, capsaicin EC20 potentiation; host cell line not named in the record; control for the full effect not named in the record; active means potentiation above 80%; inconclusive means 30% to 80%; inactive means below 30%; also: 0% is about no effect
Target sequence (Q8NER1 whole entry, looked up): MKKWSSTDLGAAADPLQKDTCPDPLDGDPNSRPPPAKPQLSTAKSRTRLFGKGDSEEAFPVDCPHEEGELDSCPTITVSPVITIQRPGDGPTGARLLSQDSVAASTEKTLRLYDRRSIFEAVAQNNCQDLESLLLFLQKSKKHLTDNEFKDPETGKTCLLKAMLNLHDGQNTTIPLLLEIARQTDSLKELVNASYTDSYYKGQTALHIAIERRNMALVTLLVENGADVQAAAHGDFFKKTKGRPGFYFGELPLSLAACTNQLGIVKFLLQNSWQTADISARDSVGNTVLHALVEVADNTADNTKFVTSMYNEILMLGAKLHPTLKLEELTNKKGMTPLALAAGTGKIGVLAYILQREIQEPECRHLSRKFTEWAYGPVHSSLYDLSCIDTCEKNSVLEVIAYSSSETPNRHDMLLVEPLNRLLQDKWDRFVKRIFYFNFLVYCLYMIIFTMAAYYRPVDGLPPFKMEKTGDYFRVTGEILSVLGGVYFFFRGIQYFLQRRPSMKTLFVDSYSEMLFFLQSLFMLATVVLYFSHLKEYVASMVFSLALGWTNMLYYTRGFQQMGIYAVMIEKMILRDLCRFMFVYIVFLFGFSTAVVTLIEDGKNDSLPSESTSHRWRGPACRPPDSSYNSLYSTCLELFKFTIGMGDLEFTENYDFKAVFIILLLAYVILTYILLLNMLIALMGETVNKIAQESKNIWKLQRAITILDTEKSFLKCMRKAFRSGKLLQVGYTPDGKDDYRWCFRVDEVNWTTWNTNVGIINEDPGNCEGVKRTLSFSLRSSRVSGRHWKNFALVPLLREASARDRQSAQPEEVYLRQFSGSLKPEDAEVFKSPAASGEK
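Fluo-8 calcium influx in TRPV1-expressing cells, kinetic read (ex 480/em 520 nm). Compound added and read 3 min for agonist activity, followed by capsaicin at EC20 final and 2 min further read for enhancement.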
TRPML1 ag – activates the human TRPML1 channel | TRPML1-expressing cells, Ca2+ dye fluorescence, FDSS; host cell line not named in the record; reference of the full effect not given here | Q9GZU1 | activation, % (no concentration beside the values) | hit rate 0.12% among 410,000; in the data active = activation above about 50%; inconclusive = about 30% to 50%; inactive = below about 30%; also: 0% is about no effect; the text of the record puts the active cut at 80%
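Cells: TRPML1-DL, 1X Tet inducer, ~16 h at 37 degrees C/5% CO2. Dye: ABD Ca8 no-wash + quencher, 45-90 min RT. Read: 10 s baseline, compound add, 110 s agonist phase; 54-4 EC80 (4uM final), 110 s antagonist phase.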
Numbers without * were called inactive; u = inconclusive; x = not tested or not shown; & = joins results of further samples.

SMILES	TRPML1 inh	CtBP-E1A blk	Six1-Eya2 blk	D2 potentiator	TRPV1 potentiator	TRPML1 ag
Cc1cc(N2CCN(C)CC2)nc2ccc(NC(=O)CCC(=O)NCc3ccco3)cc12	-5	-12	-13	-11	4	-0.4
Cc1ccsc1C(=O)OCC(=O)N(C)C1CCCCC1	-14	2	0	-6	x	-0.4
COc1ccccc1-n1c(N)cc(=O)nc1SCC(=O)Nc1cc(C)on1	2	7	-3	-4	-3	-0.3
Cc1ccccc1C(=O)c1cccn1CC(=O)NC(C)c1ccccc1 (stereo not drawn)	-10	0	13	5	2	0.6
O=C(NCc1ccc2c(c1)OCO2)c1nc(Cn2ccc([N+](=O)[O-])n2)no1	48	-11	-6	-1	-4	-0.4
Cc1cc(NC(=O)COC(=O)c2cnccn2)ccc1Br	-1	x	-2	1	x	-1.4
O=C1C(Oc2ccc(Cl)cc2)C(c2ccc3c(c2)OCO3)N1CC1CCCO1 (stereo not drawn)	-9	x	-2	6	-23	1.5
O=C(NCCc1ccccc1)C(=Cc1ccc(C(=O)O)cc1)C(=O)NCCc1ccccc1	10	0	23	0	-3	-0.4
COc1ccc(NC(=O)CSc2nnc3c4c(nc(-c5ccccc5)n23)CC(C)(C)OC4)cc1	-8	5	-9	5	3	-0.2
O=C1c2ccccc2C(=O)c2cc(NC(=O)C3CC3)ccc21	-13	-17	-10	6	-17	-0.6
CC(=O)Oc1ccccc1C(=O)C=Cc1cccc([N+](=O)[O-])c1	-20	-2	-5	-23	x	1.8
Cc1ccccc1OCC(=O)N1N=C(C(F)(F)F)CC1(O)C(C)(C)C (stereo not drawn)	10	-6	-10	-4	-2	0.6
COCCN(C(=O)c1cccc(-n2cnnn2)c1)c1c(N)n(CC(C)C)c(=O)[nH]c1=O	6	0	2	3	7	-0.1
CCCOc1ccc(-c2nc(OCC)c3ccccc3n2)cc1	0	3	3	-1	2	0.5
O=C(c1ccc(Cl)c(S(=O)(=O)N2CCCCC2)c1)N1CCCCC1	u	4	20	-13	-24	1.1
COC(=O)c1cccc(COC(=O)c2ccccc2NC(=O)c2ccco2)c1	4	-9	2	7	u	2.2
COc1ccc(-c2nnc(SC(=O)N3c4ccccc4Sc4ccccc43)o2)cc1	1	11	-26	73*	13	1.6
COc1ccc(N/N=C(\C#N)C(=N)N2CCOCC2)cc1	3	-4	-5	-2	-1	0.0
O=C(Cc1ccccc1)NN1C(=O)C2C3C=CC(C3)[C@@H]2C1=O (stereo partly drawn)	-2	-1	7	-10	-1	1.1
Cc1cccc(CCN(CC(=O)NC2CCCCC2)C(=O)c2csnn2)c1	13	5	3	-7	-2	-0.3
Cc1cccc(N2CCN(CC(O)COc3ccc(Cl)cc3)CC2)c1 (stereo not drawn)	-2	x	5	-54	-8	1.1
CC(C)(CN1CCC(Cc2ccccc2)CC1)NS(=O)(=O)c1ccccc1	53	5	4	-27	-1	1.3
CCOC(=O)c1ccc(NC(=O)Nc2ccc(S(N)(=O)=O)cc2)cc1	-3	4	0	-6	28	-0.2
O=C(C1=COCCO1)N1CCN(C(c2ccccc2)c2ccccc2)CC1	-14	-3	-1	5	9	1.2
O=C1c2ccccc2-c2ccc(C(=O)N3CCCCC3)cc21	30	1	9	-4	-16	1.8
COc1ccc([C@@H]2[C@H]3C(=O)N(c4cccc(C(F)(F)F)c4)C(=O)[C@H]3ON2C)cc1	-7	4	9	-6	-19	-0.2
Cc1ccccc1-n1c(-c2ccc(=O)[nH]n2)n[nH]c1=S	22	3	-3	-10	-4	0.1
CCOC(=O)N1CCN(C(=O)CCn2c(=S)[nH]c3ccccc3c2=O)CC1	-11	x	7	3	0	4.3
COc1cc(CN2CC(=O)N(c3cccc(Cl)c3C)C2=S)cc(OC)c1OC	x	1	1	18	5	x
C[C@@H]1CN([C@@H](C)CO)S(=O)(=O)c2ccc(Br)cc2O[C@H]1CN(C)Cc1ccccn1	5	-4	2	1	x	0.3
CC(=O)Nc1ccc(S(=O)(=O)NCc2cn3c(C)csc3n2)cc1	14	-2	4	-1	-3	0.4
CC(C)CCOCc1nc2sc3c(c2c(=O)[nH]1)CCC(C)C3 (stereo not drawn)	-1	6	0	-1	-5	-0.3
CNC(CC(C)C)C(=O)NC1C(=O)NC(CC(N)=O)C(=O)NC2C(=O)NC3C(=O)NC(C(=O)NC(C(=O)O)c4cc(O)cc(O)c4-c4cc3ccc4O)C(O)c3ccc(c(Cl)c3)Oc3cc2cc(c3OC2OC(CO)C(O)C(O)C2OC2C[C@](C)(N)C(O)C(C)O2)Oc2ccc(cc2Cl)C1O (stereo partly drawn)	12	0	0	0	-10	-0.5
COc1cc(C(=O)NCCC(c2ccccc2)c2ccccc2)cc(OC)c1OC	-8	9	4	-15	-4	1.9
CN(Cc1cn(-c2ccccc2)nc1-c1cc2ccccc2o1)C(=O)CCC(=O)O	-3	-4	-13	-8	2	-0.4
O=C(NN1C(=O)C2C3C=CC(O3)C2C1=O)c1ccncc1 (stereo not drawn)	10	-24	-8	-6	-2	0.6
COc1ccc(NC(=S)N(CCc2ccncc2)C(C)C)cc1Cl	14	3	-8	-13	x	0.6
c1ccc(CSc2nnc(-c3ccccc3)c(-c3ccccc3)n2)cc1	-18	-2	1	-43	x	1.3
CCN1C(=NCc2ccc(OC)cc2)N[C@@H](c2ccccc2)[C@H](C(=O)OC)[C@H]1C	34	6	7	-5	u	0.1
CCOc1ccc(C2=Nc3ccccc3C(c3ccc(N4CCOCC4)cc3)=NN2)cc1	-6	-18	-24	-5	-4	-0.8
Cc1ccc(OCCNC(=O)c2cccc(Oc3ccc(C(F)(F)F)cc3[N+](=O)[O-])c2)cc1	-10	-12	-13	-7	-1	2.2
CCOC(=O)c1c(NC(C)=O)sc(/C(C)=N/Nc2ccc(C(=O)O)cc2)c1C	10	-29	-24	9	2	2.5
O=C(O)c1cc(NC(=O)c2ccccc2F)cc(NC(=O)c2ccccc2F)c1	-2	8	5	-4	9	0.2
CCc1nc2c(OCc3ccccc3C(=O)OC)cccn2c1N(C)C(=O)c1ccncc1	x	-4	0	1	x	-0.6
CCCNC(=O)c1cc(C2CCCN(C(=O)c3ccc4c(c3)CCO4)C2)on1 (stereo not drawn)	27	5	5	-1	x	0.0
CN(Cc1ccc(F)cc1)Cc1nc(-c2ccccc2)no1	-21	32	27	-9	21	1.3
Cc1ccc(OCC(=O)Nc2ccc(S(=O)(=O)Nc3ccccn3)cc2)cc1	-17	4	2	1	-3	-0.3
CNC(=O)NC(=O)COC(=O)/C=C/c1cccc(Br)c1	-7	-2	-3	5	-20	2.3
COc1ccc(CN2CCC(c3nc4ccc(Cl)cc4[nH]3)CC2)cc1	-9	x	-1	-34	-8	1.2
Cc1cccc(NC(=O)c2c(O)c3ccccc3[nH]c2=O)c1	24	-14	-11	-7	-10	1.6
CCN(C(=O)C(C)N1C(=O)/C(=C/c2cccs2)SC1=S)C1CCS(=O)(=O)C1 (stereo not drawn)	10	x	-17	-6	-4	3.6
O=c1c(Br)ccc(Br)cc1Br	4	0	u	-36	x	5.0
CCCc1cc(=O)n2nc(N3CCC(C(=O)Nc4cccc(C(C)=O)c4)CC3)sc2n1	2	-2	6	-10	4	0.5
CSc1ncc(CN2CCN(C3CCN(C(C)C)CC3)C(CCO)C2)cn1 (stereo not drawn)	8	-7	-2	-5	-1	0.0
Cc1nn(-c2ccccn2)c2c1C(=O)C(Br)CC2 (stereo not drawn)	-10	-5	1	54*	-16	-0.5
CC1(c2ccccc2Cl)NC(=O)N(CC(=O)N2CCc3ccccc3C2)C1=O (stereo not drawn)	-10	-1	9	-14	10	12
Cc1cc(C(=O)COC(=O)/C=C/c2cccc(F)c2)c(C)n1C	-16	1	-4	-4	10	-0.7
CN(Cc1cccnc1)C(=O)c1cc(COc2ccc3c(c2)CCCC3)on1	-3	-1	0	3	-6	1.2
FC(F)(F)c1ccc(Cl)c(Nc2nnc(-c3ccncc3)s2)c1	u	29	29	-3	x	-0.1
Cc1cc(C)n(-c2nc3c(c(=O)[nH]c(=O)n3C)n2Cc2ccccc2)n1	-1	0	-1	-16	1	-1.0

The results go on:
SMILES	TRPML1 inh	CtBP-E1A blk	Six1-Eya2 blk	D2 potentiator	TRPV1 potentiator	TRPML1 ag
O=C(O)c1ccc(CNS(=O)(=O)c2ccc3ccccc3c2)cc1	6	-4	10	-2	13	-0.3
FC(F)(Cl)c1nnc2ccc(Cl)nn12	37	-5	1	-24	2	0.2
CCC(C)NC(=O)/C=C1\Sc2ccccc2NC1=O (stereo not drawn)	-5	17	-1	3	3	-0.6
Cc1ccc(S(=O)(=O)N2CCCCC2)cc1NC(=O)c1cccnc1	3	-4	6	1	-3	-0.3
CCn1c(SCC(=O)Nc2nonc2C)nnc1-c1ccco1	-17	-9	2	-12	10	1.4
Cc1ccc(C)c(NS(=O)(=O)c2cc(C(=O)Nc3ccccc3-c3ccccc3)ccc2Cl)c1	54	-21	-9	-6	-18	3.2
CCc1nnc(NC(=O)c2cccc(S(=O)(=O)N3CCN(C)CC3)c2)s1	-5	-1	0	-9	x	-0.6
O=C(CN1C(=O)C(=O)N(Cc2ccccc2)C1=O)Nc1ccc(F)c(Cl)c1	-6	10	-1	-4	0	-0.4
COc1ccc(NS(=O)(=O)c2nnc(NC(=O)c3ccccc3F)s2)cc1	14&17	0	4	-4	4	-0.4&-0.7
Cc1cc(OCC(=O)N(C)C2CCCCC2)cc(C)c1Cl	22	x	1	7	7	4.6
CN(CCCC(=O)Nc1ccccc1F)S(=O)(=O)c1ccc(F)cc1	1	6	1	4	3	-0.7
O=C(CCCN1C(=O)NC2(CCCC2)C1=O)N1CCN(S(=O)(=O)c2ccccc2)CC1	-10	0	5	-2	-9	1.0
CC(C)CNc1nc(S(=O)(=O)c2ccccc2)c(Cl)s1	-2	-7	6	-8	-13	0.0
CCc1c(C)sc(NC(=O)Cn2nc(C)c([N+](=O)[O-])c2C)c1C(N)=O	25	-8	4	5	3	0.6
